# eIF4H FP inh = inhibitors of RNA binding by human eIF4H. AID 2012. eIF4H fluorescence polarization binding assay. inhibition, % at 35 µM. Q15056. 290,000 tested, 0.94% active;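 active = 50% or more with normal probe brightness, or confirmed in later tests; inconclusive = above 50% with abnormal brightness, or retests that disagree; inactive = below 50% or failed in later tests; about a fifth of its hits are not listed in these tables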;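 also: calls also rest on retests at 20 µM and on dose response follow-up; 0% = protein and probe with vehicle and 100% = probe without protein; strong numbers were not always called active; many hits fall short of the cut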
# UUG fidelity = modulators of start codon recognition fidelity in yeast | activity score, % at 18.7 µM | 350,000 tested, 0.13% active | S. cerevisiae UUG-firefly luciferase reporter, luminescence/redox ratio;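 active = replicate mean at a twofold rise or more, about +100% in these data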;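 also: firefly luciferase made from a UUG start codon reports start codon fidelity; reporter light over untreated wells divided by growth signal over untreated wells; some hits fall short of that in this replicate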
# MT1-MMP act inh = MT1-MMP (human) activation inhibition | P50281 | HT1080 RFP-PRO-GFP cells, GFP/RFP ratio fluorescence, overnight; percent of plate control window, DMSO zero | GFP/RFP ratio change, % at 20 µM | 360,000 tested, 0.061% active;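 active = GFP/RFP ratio change of at least 30% with cell ATP level not reduced by more than half and red fluorescence within 50% of control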; also: strong numbers were not always called active
#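 system = RFP-PRO-GFP reporter HT1080 cells | dosing = 20 µM single dose, 1% DMSO | timing = overnight cell settling, then overnight compound exposure, 37 °C, 5% CO2 | read-out basis = GFP/RFP fluorescence ratio | controls = DMSO and RFP-L50D-GFP cell wells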
# PABP FP inh = blocks human PABP binding to poly(A) RNA. P11940. fluorescence polarization. inhibition, % at 35 µM. 290,000 tested, 1% active. AID 2014;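 active = 50% or more with normal probe brightness, or confirmed in later tests; inconclusive = above 50% with abnormal brightness, or retests that disagree; inactive = below 50% or failed in later tests; about a fifth of its hits are not listed in these tables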;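 also: calls also rest on retests at 20 µM and on dose response follow-up; controls were probe without protein and protein plus probe with vehicle; some compounds called inactive have numbers as strong as hits; many hits fall short of the cut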
# Target sequence (P11940 whole entry, looked up): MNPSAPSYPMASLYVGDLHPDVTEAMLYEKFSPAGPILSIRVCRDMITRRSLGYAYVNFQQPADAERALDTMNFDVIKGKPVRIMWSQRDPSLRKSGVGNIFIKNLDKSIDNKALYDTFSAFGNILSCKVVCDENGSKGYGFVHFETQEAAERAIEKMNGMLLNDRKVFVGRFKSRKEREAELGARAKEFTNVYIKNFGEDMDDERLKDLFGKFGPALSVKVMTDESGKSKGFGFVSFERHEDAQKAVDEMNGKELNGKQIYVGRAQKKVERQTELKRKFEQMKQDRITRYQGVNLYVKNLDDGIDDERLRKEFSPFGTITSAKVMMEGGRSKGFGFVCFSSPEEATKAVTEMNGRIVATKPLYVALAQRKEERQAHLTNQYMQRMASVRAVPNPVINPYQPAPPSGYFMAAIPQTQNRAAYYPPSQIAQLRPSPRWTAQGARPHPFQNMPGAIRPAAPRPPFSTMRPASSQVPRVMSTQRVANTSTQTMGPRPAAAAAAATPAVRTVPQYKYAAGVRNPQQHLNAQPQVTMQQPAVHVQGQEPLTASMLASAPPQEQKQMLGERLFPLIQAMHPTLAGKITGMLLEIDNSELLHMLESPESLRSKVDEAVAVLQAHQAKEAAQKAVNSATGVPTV
# CSC inhib = cancer stem cell inhibition; cancer stem cell-like cells viability, luminescence; inhibition, % at 7.5 µM; AID 2717; 300,000 tested, 1.1% active;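 active = mean at 75% or more and at least half the replicates too; inconclusive = mean and replicates disagree; tested in HMLE shEcad cells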;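 also: 0% = median of negative and 100% = median of positive control wells; the first replicate is given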
# Env fusion inh = inhibitors of HIV Env-mediated cell fusion; HeLa-JRFL Env/CEM21 cell fusion, luciferase; inhibition, % at 12.3 µM; 360,000 tested, 1.1% active;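 active = mean replicate inhibition score of at least 50 and every replicate individually at or above 50; inconclusive = only one of the two criteria met; inactive = mean below 50 and not all replicates reaching 50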;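 also: 0% = plate neutral controls and 100% = maraviroc near 300 nM; one replicate is shown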
# Rce1 inh = blocks yeast Ras-converting enzyme; calls only; 290,000 tested, 0.27% active; yeast membranes, quenched prenylated peptide cleavage fluorescence;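 active = fall in fluorescence gain of 50% or more versus controls, with final raw signal at or below 3038400; inconclusive = same 50% fall but final raw signal above 3038400; inactive = fall in fluorescence gain under 50%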;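 also: plate controls were neutral control wells for no effect and wells lacking membranes for full effect; tested at 10 µM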
# Target sequence (Q03530 whole entry, looked up): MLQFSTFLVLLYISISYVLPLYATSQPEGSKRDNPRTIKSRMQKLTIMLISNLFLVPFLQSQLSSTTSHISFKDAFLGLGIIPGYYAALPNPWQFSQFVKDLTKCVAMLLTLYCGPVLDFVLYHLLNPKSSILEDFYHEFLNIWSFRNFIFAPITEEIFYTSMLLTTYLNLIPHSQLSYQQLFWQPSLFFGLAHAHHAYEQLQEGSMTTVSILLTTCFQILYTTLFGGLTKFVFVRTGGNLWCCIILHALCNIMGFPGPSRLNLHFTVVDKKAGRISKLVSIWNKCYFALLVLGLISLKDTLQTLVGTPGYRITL
# MT1-MMP act inh RFP = also measured in MT1-MMP act inh; calls as there; RFP signal change, %; measured here: RFP expression control read;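 0 = vehicle wells; hits needed this value within 50% of zero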
# Active calls of the source: *; i = inactive; u = inconclusive; x = not tested or not shown. These rows are one share of the data; count on the stated rates, not on these rows.
# Every second line gives: eIF4H FP inh | UUG fidelity | MT1-MMP act inh | MT1-MMP act inh RFP | PABP FP inh | CSC inhib | Env fusion inh | Rce1 inh
1. Cc1c(O)c2c(=O)n(-c3ccccc3)c(-c3ccccc3)cc2oc1=O
 : -1 | -18 | -1 | -2 | 4 | 40 | x | i
2. COc1ccccc1S(=O)(=O)Cc1ccc(C(=O)N2CCN(c3cccc(Cl)c3)CC2)o1
 : 7 | -12 | 3 | -16 | 0 | 54 | 98* | i
3. NC(=O)COC(=O)c1cccc(S(=O)(=O)N2CCN(c3ccccc3)CC2)c1
 : -1 | x | -1 | -1 | -7 | -6 | 8 | i
4. O=c1[nH]c(CCC2CCCC2)nc2ccccc12
 : 6 | x | 5 | -8 | -3 | 2 | -28 | i
5. COc1ccccc1CNC(=O)COC(=O)c1ccc(-n2cnnn2)cc1
 : x | -19 | 2 | 2 | x | -4 | 0 | i
6. CCCn1c2ccccc2c2nnc(SCC(=O)OC)nc21
 : 3 | -14 | 0 | 1 | 4 | x | -26 | i
7. O=C(OCC#CCSc1nnc(-c2ccc([N+](=O)[O-])cc2)o1)c1cccs1
 : -2 | -8 | 1 | -6 | -12 | -8 | -31 | i
8. COc1ccccc1OCCN(C#N)c1nc(N(C)C)nc(N(C)C)n1
 : 9 | x | -2 | -3 | 5 | -6 | 19 | i
9. COCCN1Cc2cccc(C(=O)N3CCN(c4ccccc4)CC3)c2C1=O
 : 16 | -6 | 2 | 2 | -2 | x | 9 | i
10. COc1ccc(Cl)cc1C(=O)Nn1cnc2ccccc2c1=O
 : -6 | -12 | 5 | 0 | -3 | -8 | x | i
11. O=C(COc1cc2oc(=O)cc(-c3ccccc3)c2cc1Cl)NCCN1CCOCC1
 : -6 | -1 | 3 | 0 | -13 | -13 | -2 | i
12. COc1ccc(S(=O)(=O)N2CCCC(C(=O)NC3CC3)C2)cc1Cl (stereo not given)
 : -2 | -9 | -2 | -2 | 4 | -9 | 0 | i
13. O=C(Nc1ccccc1Cl)c1cccc(NC(=O)C2CCCC2)c1
 : -5 | -9 | -3 | -2 | -1 | 5 | -7 | i
14. Cc1ccc2[nH]cc(C(=O)CN3CCN(c4ccccn4)CC3)c2c1
 : -2 | -9 | -4 | -2 | -1 | -8 | x | x
15. COc1ccc(C2C(C#N)=C(C)NC3=C2C(=O)c2ccccc23)cc1 (stereo not given)
 : 15 | -16 | -1 | -2 | 6 | 4 | 9 | i
16. NC(=O)CSc1nc2ccccc2c(=O)n1CCc1ccccc1
 : -5 | -6 | -1 | -3 | -18 | -4 | -1 | i
17. COc1ccc2nc(Sc3c([N+](=O)[O-])nc(C)n3Cc3ccccc3)[nH]c2c1
 : 4 | x | x | x | 16 | 3 | -50 | i
18. CCOC(=O)C1CCCN(C2=C(NS(=O)(=O)c3ccc(Br)cc3)C(=O)c3ccccc3C2=O)C1 (stereo not given)
 : -3 | 17 | 3 | 4 | 16 | -11 | 12 | i
19. COc1ccc(Nc2nc(C)cc(C)c2C#N)cc1OC
 : 3 | -1 | -7 | -4 | -10 | 3 | -7 | i
20. CN(Cc1ccccc1F)c1nc(-c2cccnc2)nc2ccccc12
 : -20 | -17 | -4 | -6 | -12 | 10 | 5 | x
21. Cc1ccc(Cl)cc1NC(=O)N[C@@H](CC(C)C)C(=O)O
 : -13 | x | 3 | 9 | -10 | -6 | 6 | i
22. O=C1CN(C(=O)c2cccc(F)c2)C(c2ccc(F)cc2)c2cc(F)ccc2N1 (stereo not given)
 : 3 | 1 | -8 | -2 | -4 | -2 | 15 | i
23. Cc1cc(C)nc(N/N=C2/CCSc3ccc(F)cc32)n1
 : -15 | -11 | -4 | 1 | -5 | -6 | 18 | i
24. CCCS(=O)(=O)NC(=O)C1(C)CCN(C(=O)c2ccccc2F)C1 (stereo not given)
 : x | -13 | -1 | 4 | x | x | 3 | x
25. COc1ccc(N2CCN(C(CNC(=O)C(=O)NCC3CCCO3)c3ccco3)CC2)cc1 (stereo not given)
 : -1 | -12 | 6 | 3 | 4 | 11 | x | i
26. O=C1CCCC2=C1CC(C(=O)OCc1ccccc1)C(=O)N2Cc1ccccc1 (stereo not given)
 : x | 0 | 0 | -3 | x | x | -4 | x
27. Cc1ccc(OC(C)C(=O)Nc2ccc3c(c2)n(C)c(=O)n3C)cc1C (stereo not given)
 : 7 | -13 | 6 | 2 | 6 | -1 | -4 | i
28. O=C(Nc1ccccc1Cl)c1ccccc1
 : 2 | x | -3 | -2 | -4 | -20 | -48 | i
29. NC(=O)CC(NC(=O)Cc1ccc(Cl)cc1)c1ccc(NC2CCCCCC2)c([N+](=O)[O-])c1 (stereo not given)
 : -4 | -8 | 4 | 6 | -12 | 15 | -3 | i
30. ClC(Cl)(Cl)c1nc(N/N=C/c2ccncc2)c2ccccc2n1
 : -9 | x | -1 | -8 | u | 0 | -13 | i
31. CSCCC(NC(=O)c1ccccc1)C(=O)NC1CCCC1 (stereo not given)
 : -2 | -16 | 0 | 1 | -5 | -9 | x | i
32. Cc1cc(C(=O)Nc2ccc3c(c2)OCO3)cs1
 : -11 | -43 | 2 | 3 | 4 | -3 | x | i
33. COc1ccc(NC(=O)c2oc3ccccc3c2NC(=O)c2ccco2)c(OC)c1
 : 6 | 4 | 7 | -3 | 1 | 23 | -4 | i
34. CC(C)CCNC(=O)CN(C(=O)CCC(=O)Nc1nccs1)C1CCCCC1
 : 6 | x | 1 | 2 | 12 | -8 | -4 | i
35. CS(=O)(=O)Nc1ccc(C2=NN(S(C)(=O)=O)C(c3ccc4c(c3)OCO4)C2)cc1 (stereo not given)
 : -5 | x | -40 | -3 | 1 | 3 | -19 | i
36. O=C1OC(/C=C/c2ccc(Cl)cc2Cl)=NC/1=C\c1cccs1
 : 18 | -14 | 0 | 4 | -5 | 3 | 13 | i
37. COc1ccc(-c2csc(NCCn3c(C)nc4cc(C(F)(F)F)ccc43)n2)cc1
 : x | -20 | 3 | 1 | x | 6 | -14 | x
38. CCOC(=O)C(=O)NNc1ccc(C)cc1
 : 4 | x | 3 | 4 | 42 | 102* | -25 | i
39. CC(=O)NCCc1c[nH]c2ccc(OCC(O)CNC(C)(C)C)cc12 (stereo not given)
 : -5 | x | 0 | -2 | -10 | 1 | -12 | i
40. CCc1nnc(NC(=O)CSc2nc(SC)ns2)s1
 : -7 | x | 1 | 4 | -2 | -10 | -2 | i
41. O=C(NNC(=O)c1ccc(S(=O)(=O)N2CCCCC2)cc1)c1ccc(F)cc1
 : -2 | 14 | 3 | 3 | 1 | x | 7 | i
42. CC1=C(C(=O)OC(C)C)C(c2ccc(C)o2)NC(=O)N1 (stereo not given)
 : 5 | 11 | 2 | -3 | -3 | -10 | x | i
43. C#Cc1ccc([C@@H]2C=C(C(=O)N3CCN(Cc4ccccc4)CC3)O[C@H](OCC)[C@H]2CCCO)cc1
 : -2 | -8 | 1 | -9 | -4 | -16 | -22 | i
44. COc1ccccc1N1CCNC(C)C1=O (stereo not given)
 : 2 | -7 | -1 | 2 | 8 | -2 | 0 | i
45. COc1ccc(N2CCN(C(=S)Nc3ccc(S(N)(=O)=O)cc3)CC2)cc1
 : -13 | x | 2 | -5 | 0 | -4 | 8 | i
46. O=C(NNS(=O)(=O)c1ccc(F)cc1)c1cnn(-c2ccccc2)c1C(F)(F)F
 : -1 | x | 4 | 1 | 8 | 10 | 2 | i
47. CC1CCCCN1S(=O)(=O)CCNC(=O)c1ccccc1 (stereo not given)
 : x | 21 | 6 | 6 | x | 3 | -3 | i
48. Cc1ccc(-c2csc(N)n2)s1
 : 5 | 1 | -3 | 1 | 47 | -20 | -22 | i
49. C(/C=C/c1ccccn1)=C\c1ccccc1
 : x | x | -1 | 1 | x | -8 | -179 | i
50. CCN(CC(=O)Nc1ccc(NC(C)=O)cc1)C(=O)CCCN1C(=O)c2ccccc2C1=O
 : x | -7 | 4 | 3 | x | x | 22 | i
51. O=C(COC(=O)c1cc(=O)c2ccccc2o1)NC1CCCCC1
 : -9 | x | 2 | 5 | -6 | 6 | 16 | i
52. CCN(CC)C(=O)[C@H]1C[C@H](CC(=O)NCc2ccc(OC)c(OC)c2)C(=O)N2CCc3c([nH]c4cc(-c5ccco5)ccc34)[C@]12C
 : x | -7 | -2 | -3 | x | x | -22 | x
53. O=C(Oc1cccnc1)c1ccc(Cl)c(Cl)c1
 : -23 | -19 | 0 | 5 | 1 | -1 | -42 | i
54. CCCOC(=O)CSc1nnc(-c2ccccc2Cl)o1
 : 8 | -10 | 7 | 3 | 1 | x | x | i
55. CN(C)CCCN1c2ccc([N+](=O)[O-])cc2CCc2cc([N+](=O)[O-])ccc21
 : x | 3 | -5 | 1 | x | -8 | -76 | i
56. O=C(c1ccccc1C(F)(F)F)N1CCN(S(=O)(=O)c2ccccc2)CC1
 : 0 | 7 | 5 | 3 | -3 | -6 | -80 | i
57. CN(c1ccccc1)S(=O)(=O)c1ccc(Cl)c(C(=O)NCC(c2ccco2)N2CCCC2)c1 (stereo not given)
 : x | -13 | -6 | 0 | x | -14 | 14 | x
58. c1ccc(CCc2nn3c(Cc4ccccc4)nnc3s2)cc1
 : -4 | -23 | 5 | -1 | 8 | -20 | -36 | i
59. CSCCC(NS(=O)(=O)c1ccccc1F)C(=O)N1CC=C(c2ccccc2)CC1 (stereo not given)
 : 0 | 10 | 3 | -7 | -8 | x | x | i
60. COC(=O)C(CC(C)C)NC(=O)/C=C/c1ccccc1Cl (stereo not given)
 : 0 | -8 | 7 | 7 | 32 | -4 | 8 | i

# The list continues:
# Every second line gives: eIF4H FP inh | UUG fidelity | MT1-MMP act inh | MT1-MMP act inh RFP | PABP FP inh | CSC inhib | Env fusion inh | Rce1 inh
61. O=C(c1ccc(N2CCN(C(=O)c3ccccc3)CC2)cc1)c1cccc(F)c1
 : -6 | -7 | 2 | -14 | -3 | -17 | -3 | i
62. CC(C)(C)C(=O)/C=C/Nc1ccccc1O
 : 5 | -19 | -4 | -1 | 14 | x | -91 | i
63. COCCCNC(=O)c1ccccc1C(F)(F)F
 : -3 | x | -1 | -2 | -10 | -1 | 3 | i
64. Cc1ccc(NC(=O)C(C)c2cccc(C(=O)c3ccccc3)c2)cc1 (stereo not given)
 : -8 | x | 8 | -7 | 2 | 8 | 33 | i
